CapD inh – CapD enzyme inhibition | purified CapD enzyme, fluorescence intensity read-out; stronger effect = lower value; some hits fall short of the stated cut | 0.23% of 140,000 active | z-score (concentration not given with the values);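 active = z-score under -4 in either of two replicates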;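 also: stock transfer was 100 nL into about 40 µL; score is relative to mean and spread of the plate; one replicate is shown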
AID504770 – growth inhibitors of E. coli YBA685 in a screen for V. cholerae RctB (chromosome II replication) inhibitors; 0.27% of 130,000 active; E. coli YBA685 rctB-dependent plasmid, OD600 growth, 3 h; stronger effect = lower value; AID 504770; z-score (concentration not given with the values);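 active = z-score under -2 on both plates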;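 also: wells of about 30 µL received 100 nL stock; score is relative to mean and SD of the test wells; the first replicate is given; strong numbers were not always called active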
Active calls of the source: *; · = not tested or not shown; & = joins results of further samples.

SMILES	CapD inh	AID504770
O=C(CSCc1ccc(Cl)c(Cl)c1)Nc1ccc(F)cc1F	-0.24	0.65
O=C1CCCN1CCCNc1nc2c(S(=O)(=O)c3ccc(Br)cc3)nnn2c2ccccc12	16	-0.3
CCn1c(C(C)NC(=O)c2ccccc2)nc2ccccc21 (centres undefined)	0.4	-0.25
COC(=O)c1ccc(CSc2nc3ccccc3s2)o1	0.18	-1.2
Cc1nc(C)c(-c2ccn(S(=O)(=O)c3ccc(Cl)cc3)n2)o1	0.35	0.5
CC(/C=C1\SC(N(C)c2ccc(O)cc2)=NC1=O)=C\c1ccccc1	-0.68	1.3
COc1cc2c(cc1OC)CN(C(=O)/C=C/c1ccc(OCc3c(C)noc3C)c(OC)c1)CC2	·	-1.9
CCC(C(=O)O)N1C(=O)COc2ccccc21 (centres undefined)	0.48	-0.65
O=C(CSc1nc2c(c(=O)n1CCc1ccccc1)SCC2)Nc1nccs1	-1.3	2.3
c1nc(NCc2ccc3c(c2)OCO3)c2nc3n(c2n1)CCCCC3	-0.26	0.2
Cc1nc(CS(=O)c2ccc(Cl)cc2)cc(N2CCOCC2)n1 (centres undefined)	0.32	·
O=c1[nH]c(CN2CCN(CC3CCCO3)CC2)nc2cc(-c3ccc(Cl)cc3)sc12 (centres undefined)	·	0.3
CC1(C)CC2CC(C)(CN2CC(O)COCc2ccccc2F)C1 (centres undefined)	-0.39	-0.05
O=C(CCCC(=O)Nc1cccc2ccccc12)Nc1cccc2ccccc12	3.7	1.2
COc1ccc2[nH]c(=O)c(CN(C)S(=O)(=O)c3ccc(C)cc3)cc2c1	9.8	0.85
CCC(=O)Oc1ccc(/C=C2\C(=O)N(c3cccc(Br)c3)N=C2C)cc1OC	-0.18	·
COCC(C)n1c(SCc2nc3ccccc3c(=O)[nH]2)nc2ccccc2c1=O (centres undefined)	·	-0.05
O=C1c2cc(S(=O)(=O)N(Cc3ccccc3)Cc3ccccc3)cc([N+](=O)[O-])c2-c2c1cc(S(=O)(=O)N(Cc1ccccc1)Cc1ccccc1)cc2[N+](=O)[O-]	-0.76	·
Cc1cc(NS(=O)(=O)N2CCOCC2)no1	·	-0.1
CC(=O)Nc1cc2c(C)cc(=O)oc2c2c(Nc3ccc(Cl)cc3)coc12	0.24	·
CCCN(CCC)C(=O)CSc1nc2ccccc2c(=O)n1CCCC(=O)N1CCN(c2ccccc2)CC1	-0.21	·
Cc1cccc(N2CCN(C(=O)Nc3ccccc3F)CC2=O)c1C	·	0.15
O=c1[nH]ncc(NCc2ccccc2)c1Cl	0.84	-0.75
Cc1nc(S(=O)(=O)c2ccc(Cl)cc2)c(NCc2ccccc2)o1	4.8	·

Entries shown so far containing a carbonyl joined to an NH by a bond outside any ring (6):
SMILES	CapD inh	AID504770
O=C(CSCc1ccc(Cl)c(Cl)c1)Nc1ccc(F)cc1F	-0.24	0.65
CCn1c(C(C)NC(=O)c2ccccc2)nc2ccccc21 (centres undefined)	0.4	-0.25
O=C(CSc1nc2c(c(=O)n1CCc1ccccc1)SCC2)Nc1nccs1	-1.3	2.3
O=C(CCCC(=O)Nc1cccc2ccccc12)Nc1cccc2ccccc12	3.7	1.2
CC(=O)Nc1cc2c(C)cc(=O)oc2c2c(Nc3ccc(Cl)cc3)coc12	0.24	·
Cc1cccc(N2CCN(C(=O)Nc3ccccc3F)CC2=O)c1C	·	0.15

New compounds follow:
SMILES	CapD inh	AID504770
Clc1ccc(Cl)c(OCCOc2cc(Cl)ccc2Cl)c1	0.11	·
c1ccc(-c2csc(-c3ccc4c(c3)OCCO4)n2)cc1	22	-0.7
COc1cc(OC)c(NC(=O)Cn2nnc(C(=O)O)c2C(=O)O)cc1Cl	-0.24	-0.55
CCN1CCCC1CNC(=O)c1cc2c(s1)-c1ccccc1SC2 (centres undefined)	9.8	0.35
COc1ccc(C)cc1NC1=NCCCS1	0.46	0.95
Cc1ccc(-c2nc(C#N)c(NCCCN3CCCC3=O)o2)cc1	·	1.8
O=C(Cc1ccccc1)NC1CCS(=O)(=O)C1 (centres undefined)	·	-0.1
COc1ccc(NC2=CC(c3cccc4ccccc34)N(c3ccc(OC)cc3)C2=O)cc1 (centres undefined)	-0.08	·
CCCCN1C(=O)/C(=C/c2c(N3CCN(CCO)CC3)nc3ccccn3c2=O)SC1=S	-0.14	·
Cn1c(=O)c2c(nc(NCc3ccc4c(c3)OCO4)n2Cc2ccc(F)cc2)n(C)c1=O	0.02	·
COC(=O)CN1C=C(C(=O)OC)C(c2cccc(Cl)c2)C(C(=O)OC)=C1	94	-0.15
COc1ccc(N(C(=O)c2ccccc2)S(=O)(=O)c2ccc(Cl)cc2)cc1	0.46	0.3
COc1ccccc1S(=O)(=O)Cc1ccc(C(=O)NCCN(C)C)o1	-0.07	0.25
O=C(CC1SC(=NC2CC3C=CC2C3)NC1=O)Nc1cc(Cl)ccc1Cl (centres undefined)	-0.01	-0.45
c1ccn2c(CNC3CC4CC3C3CCCC43)nnc2c1 (centres undefined)	·	0.5
COc1ccc(CC(C)(N)C(=O)O)cc1OC (centres undefined)	0.3&-0.96	1.4
COC(=O)c1ccc(-c2ccc(C(=O)OC)cc2)cc1	0.52	·
CCOc1ccc(N(CC)C(=O)COc2cc(=O)n(CC)c3ccccc23)cc1	0.2	0.75
COCc1cc(OC(=O)N(C)C)nc2c1c(-c1cccs1)nn2C	21	-1.1
CS(=O)(=O)c1ccc(CSc2ccccc2NC(=O)c2ccco2)cc1	-0.22	·
O=S1(=O)CCC(Cc2n[nH]c(=S)o2)C1 (centres undefined)	·	0.4
c1ccc(Cc2nc(NCC3CCCO3)c3c4c(sc3n2)CCCC4)cc1 (centres undefined)	1	·
COC(=O)c1scc2c(N3CCC(n4cccc4)CC3)cc(C(F)(F)F)nc12	-1.6	-0.65
NC(=O)c1cccc(CC(=O)c2ccccc2)c1	0.72	0.05
CC(=O)Nc1ccc(Cl)c(-c2nc3cc(Cl)ccc3o2)c1	0.54	0.95
COc1cc(C2C(C#N)=C(N)OC3=C2C(=O)CCC3)ccc1OC(=O)N1CCOCC1 (centres undefined)	0.05	·
Cc1ccc(C(=O)CCc2nc3ccccc3s2)cc1C	-0.25	0.15
N=c1c2c(-c3ccccc3)c(-c3ccccc3)oc2ncn1Cc1ccccc1	3.3	·
CC(NC(=O)Nc1ccccc1)C(=O)N1CCc2ccccc21 (centres undefined)	·	0.15
O=C(Nc1nn[nH]n1)c1ccc(S(=O)(=O)N2CCCCC2)cc1	·	0.05
O=C(Nc1ccc2c(c1)C(=O)c1ccccc1C2=O)c1cccc(C(=O)Nc2ccc3c(c2)C(=O)c2ccccc2C3=O)c1	-0.73	·
CN1/C(=C\C(=O)C2CCCCC2)C(C)(C)c2ccccc21	7.3	-0.05
C=CCn1c(NC(C)c2cc(Cl)ccc2O)nc2ccccc21 (centres undefined)	-0.77	-0.7
CCOc1cc2[nH]c(=O)n(CCCC(=O)NCCc3ccccc3)c(=O)c2cc1OCC	4.2	-0.5
CC1CCCC(NC(=O)CN2N=C(c3ccc(Cl)cc3)CCC2=O)C1C (centres undefined)	-0.085	-0.4
COc1ccccc1N1CCN(Cc2nc(-c3ccc(Br)cc3)cs2)CC1	0.42	-0.3
Cc1cccc(N2C(=O)CC(c3cn(C)c4ccccc34)C2=O)c1 (centres undefined)	2	0.15
CCc1[nH]nc2c1C1(C(=O)Nc3ccc(Cl)cc31)C(C#N)=C(N)O2 (centres undefined)	·	-0.85
COc1ccc(S(=O)(=O)Nc2nc(O)c(C3=c4cc([N+](=O)[O-])ccc4=NC3=O)s2)cc1	-1.3	·
CC(O)c1nc2ccccc2n1C(=O)c1ccc(OCc2ccccc2)cc1 (centres undefined)	-0.29	-0.55
O=c1c2cccc3cccc(c32)c2nc3ccc4ccccc4c3n12	0.065	·
NC(=O)c1ncc(C(F)(F)F)cc1Cl	0.7	1.3
COC(=O)c1cc(NC(=O)N2c3ccccc3Sc3ccccc32)cc(C(=O)OC)c1	-0.4	-0.35
COc1ccc(Cc2nnc(C(=O)NCCc3ccccc3)o2)cc1OC	-0.58	0.35
COc1ccc(-c2c(C#N)c(SCC(=O)c3ccccc3)nc3c2C(=O)CC(C)(C)C3)cc1	0.055	-0.45
CN1CCC(N(C)C(=O)Nc2cccc3ccccc23)CC1	·	-0.4
COc1ccc(CN(Cc2cccs2)C(=O)c2ccccc2-n2cnnn2)cc1OC	·	-0.4
O=C(NCCN1C(=O)S/C(=C\c2cccnc2)C1=O)c1cccs1	·	-0.25
CCC(=O)N1CCc2cc(S(=O)(=O)CCC(=O)N3CCN(c4ccccc4)CC3)ccc21	-0.095	-0.45
NC(=O)CSc1nnc(-c2c[nH]c3ccccc23)n1CC1CCCO1 (centres undefined)	·	-1.1
C/C(=N/N1CCc2ccccc21)C(=O)O	-0.29	·
CCOC(=O)C1SC(c2ccc(Cl)cc2)C(C#N)C1(O)c1ccccc1 (centres undefined)	-0.38	-0.1
NC(=O)c1c(Nc2nc3c(F)cccc3s2)sc2c1CCCC2	·	0.65
Cc1cccc(CC2SC(=Nc3ccc(Br)cc3)NC2=O)c1 (centres undefined)	0.23	-0.15
N#C/C(=C\c1ccc([N+](=O)[O-])cc1)c1nc(-c2cc3cc(Br)ccc3oc2=O)cs1	0.26	·
CCC(=O)Nc1nc(-c2ccccc2)cs1	-0.065	-0.35
CSc1sc(C#N)c2c1C(=O)CCC2	-1.3	·
Cc1ccc(S(=O)(=O)NC(=O)NC2CCN3CCCc4cccc2c43)cc1 (centres undefined)	-0.065	·
CCC(NC(=O)Nc1ccccc1C(=O)O)(C(F)(F)F)C(F)(F)F	3.7	-1.1
O=C(NCCOc1cccc2cccnc12)C1CC1	3.3	-0.5

Two entries from above, with each value named.
> CSc1sc(C#N)c2c1C(=O)CCC2
  CapD inh: -1.3
  AID504770: ·
> N#C/C(=C\c1ccc([N+](=O)[O-])cc1)c1nc(-c2cc3cc(Br)ccc3oc2=O)cs1
  CapD inh: 0.26
  AID504770: ·

Next compounds:
SMILES	CapD inh	AID504770
NNC(=O)Cc1nc(-c2ccccc2)cs1	·	-0.85
CC1Cc2ccccc2N1S(=O)(=O)c1ccc2[nH]c(=O)[nH]c2c1 (centres undefined)	·	0.75
Cc1ccc(CN2C(=O)CSc3ccc(NC(=O)NCc4ccccc4)cc32)cc1	-0.55	0.55
Cc1cc(COC(=O)NNC(=O)c2sc(-c3ccc(C(F)(F)F)cc3)nc2C)no1	11	·
Cc1occc1C(=O)N/N=C/c1ccc(F)c(Br)c1	0.3	-0.1
O=C(NCc1ccco1)NCc1c(-c2cccs2)n(Cc2ccccc2)c2ccccc12	11	-1.1
CS(=O)(=O)Nc1ccccc1C(=O)O	·	-0.4
O=C1NC(=O)C(=C/C=C/c2ccccc2)C(=O)N1	-1.1	-0.1
CCCCc1ccc(-c2nc(-c3ccncc3)no2)cc1	-0.015	-0.95
Cc1ccc(NC(=O)c2sc3nc4c(cc3c2N)CCCC4)cc1	0.57	-0.1
CC(Sc1nc2c(cnn2-c2ccc(Cl)cc2)c(=O)[nH]1)c1ccccc1 (centres undefined)	0.54	-0.55
Cc1cc2cc(CNC(=O)Cc3ccccc3)ccc2n1C	-1.1	-0.15
CC(C)(C)N/N=C/c1ccc(O)c(O)c1O	·	-1
CN(Cc1ccccc1)Cc1csc2c1CCCC2	-0.45	0.5
O=C(Cc1cccc2ccccc12)Nc1cccnc1	1.3	-0.5
Cn1ccnc1C(=O)c1ccc(Cl)c(S(=O)(=O)N2CCOCC2)c1	·	0
CCOc1ccsc1C(=O)NNC(=O)OCC1CCCN1c1ccc([N+](=O)[O-])cc1 (centres undefined)	-1.5	·
CN(C)C(=O)COC(=O)c1ccc(S(=O)(=O)N2CCCc3ccccc32)cc1	·	0.1
C#CCN1C(=O)S/C(=C/c2cc(CC=C)c(O)c(OC)c2)C1=O	-0.25	0.85
CCCCNS(=O)(=O)c1ccc2c(c1)C(=C(C#N)C#N)c1cc(S(=O)(=O)NCCCC)ccc1-2	·	0
O=C(CCC(=O)c1ccccc1)Nc1ccc(-c2ccccc2)cc1	-1.7	1
O=C(Cc1sc(-c2ccccc2)nc1-c1ccccc1)Nc1ccc(F)cc1	-0.27	·
CCS(=O)(=O)Nc1cccc(Oc2ccccc2)c1	·	-0.35
COc1ccc(C)nc1[N+](=O)[O-]	-0.84	·
CCN(CC)Cc1c(O)ccc2c1O/C(=C\c1ccc(C(=O)OC)cc1)C2=O	·	0.15
O=C(O)Cc1ccccc1Sc1ccccc1	6.9	0.6
COc1cccc(C(=O)n2ccc(-c3cccs3)n2)c1	1.6	-0.05
Cn1c(C(=O)N2CCC(C(=O)N3CCN(Cc4ccc5c(c4)OCO5)CC3)CC2)cc2sccc21	-0.06	-0.65
Cc1cccc(-n2c(C)cc(CNC(=O)NCC3CCCO3)c2C)c1 (centres undefined)	-0.78	-0.2
c1ccc(-c2cc(N3CCCCC3)n3cnnc3n2)cc1	1.3	0
O=C(CC1OC(=O)c2ccccc21)N/N=C/c1c(F)cccc1Cl (centres undefined)	-1.5	·
CC1Cc2ccccc2N1C(=O)Nc1ccc2c(c1)OCO2 (centres undefined)	-0.33	0.35
COC(=O)C1=C(C)NC2=C(C(=O)CC(c3ccc(N(C)C)cc3)C2)C1c1ccc(O)c(OC)c1 (centres undefined)	·	0.2
O=S(=O)(/C=C/c1ccccc1)Nc1ccc(S(=O)(=O)N2CCOCC2)cc1	·	-0.15

One compound at a time (already shown):
COc1cc(OC)c(NC(=O)Cn2nnc(C(=O)O)c2C(=O)O)cc1Cl across the screens: CapD inh: -0.24; AID504770: -0.55
CC(Sc1nc2c(cnn2-c2ccc(Cl)cc2)c(=O)[nH]1)c1ccccc1 (centres undefined) across the screens: CapD inh: 0.54; AID504770: -0.55

From PubChem

This is a subset. The share of hits here may be higher or lower than overall.
